KCNQ2 block: KCNQ2 channel blockers in CHO-K1 cells – cell-based, FluxOR thallium flux, B-score, primary screen (AID 2156); 20 min; hits give low values; only compounds with negative scores are shown here; some inactives read as strong as hits; B-score at 10 µM; hit rate 1.1% among 310,000;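 active = fluorescence ratio B-score at most minus 3 library SDs, with starting brightness B-score within 2 library SDs, cut at about -5.5 in these data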
Target sequence (O88943 whole entry, looked up): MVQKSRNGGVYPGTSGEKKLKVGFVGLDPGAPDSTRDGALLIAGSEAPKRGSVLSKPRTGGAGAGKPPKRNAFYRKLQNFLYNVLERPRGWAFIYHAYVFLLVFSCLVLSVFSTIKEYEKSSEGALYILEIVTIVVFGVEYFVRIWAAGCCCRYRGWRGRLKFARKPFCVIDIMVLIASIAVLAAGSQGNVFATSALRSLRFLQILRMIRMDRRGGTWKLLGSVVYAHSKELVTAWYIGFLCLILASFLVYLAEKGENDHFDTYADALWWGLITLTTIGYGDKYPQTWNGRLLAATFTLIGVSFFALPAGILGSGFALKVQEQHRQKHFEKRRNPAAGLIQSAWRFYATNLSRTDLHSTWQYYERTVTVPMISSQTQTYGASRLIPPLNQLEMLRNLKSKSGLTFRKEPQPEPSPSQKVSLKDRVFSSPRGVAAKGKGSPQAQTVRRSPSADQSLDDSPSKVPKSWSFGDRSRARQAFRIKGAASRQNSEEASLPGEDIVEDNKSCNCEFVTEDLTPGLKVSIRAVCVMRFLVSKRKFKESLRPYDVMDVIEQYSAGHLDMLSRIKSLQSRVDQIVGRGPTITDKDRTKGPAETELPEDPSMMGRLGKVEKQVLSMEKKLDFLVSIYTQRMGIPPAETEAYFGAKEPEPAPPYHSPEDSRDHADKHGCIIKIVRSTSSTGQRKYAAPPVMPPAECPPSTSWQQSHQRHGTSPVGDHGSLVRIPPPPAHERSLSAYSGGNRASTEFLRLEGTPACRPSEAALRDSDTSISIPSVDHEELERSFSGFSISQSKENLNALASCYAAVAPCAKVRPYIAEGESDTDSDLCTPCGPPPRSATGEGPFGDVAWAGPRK
KCNQ2 block baseline: recorded beside KCNQ2 block, whose call it bears; B-score; measured here: initial fluorescence intensity artifact check;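 brightness before thallium and not channel activity; 0 = typical well and far values either way flag optical interference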
Numbers without * were called inactive; i = inactive.

SMILES | KCNQ2 block | KCNQ2 block baseline
Cc1ccc(SCC(=O)OC(C)C(=O)NCc2ccccc2)cc1 (stereo not given) | i | 0.02
CC1(C)NC(=O)NC2(C)NC(=O)NC(C)(C)C12 (stereo not given) | i | -1.42
COc1cccc(NC(=O)CCNS(=O)(=O)c2ccc3c(c2)oc(=O)n3C)c1 | i | -0.28
Cc1ccc(NC(=O)[C@@H]2CCCN2C(=O)[C@@H]2Cc3ccccc3CN2)c(C)c1 | i | 0.28
C[C@H](NC(=O)c1nc[nH]c1C(=O)N[C@@H](CCCCN)C(=O)OC(C)(C)C)C(=O)OC(C)(C)C | i | -0.99
CCCN(CCC)C(=O)c1c(C)[nH]c(C(=O)OCC)c1C | i | 0.21
CCOc1ccc(OCc2ccc(C(=O)N/N=C(\C)c3ccccn3)cc2)cc1 | i | -1.8
Cc1ccn2c(=O)c(C(=O)NC3CCCCC3C)c(O)nc2c1 (stereo not given) | i | -3.01
O=C(OCCN1C(=O)c2cccc3c(N4CCOCC4)ccc(c23)C1=O)c1ccc(Cl)cc1 | i | 12.5
CCOC(=O)C1=C(COC(=O)c2cccnc2Cl)NC(=O)NC1C (stereo not given) | i | -0.09
Cc1ccsc1/C=N/NS(=O)(=O)c1ccc([N+](=O)[O-])cc1 | i | 0.39
NC(=O)c1cc([N+](=O)[O-])ccc1N1CCCCC1 | i | -0.26
CC1CCCCN1C(=O)COC(=O)C1CCN(S(=O)(=O)c2ccc(Cl)c(C(F)(F)F)c2)CC1 (stereo not given) | i | 0.81
CCCOc1ccc(/C=N/NC(=O)c2ccc(Cn3cc([N+](=O)[O-])cn3)o2)cc1 | i | -0.04
CCCCC(=O)NC(c1cccc([N+](=O)[O-])c1)c1c(OC(C)=O)ccc2ccccc12 (stereo not given) | i | -0.34
CC(=O)c1c(C)oc2ccc(N(C(C)=O)S(=O)(=O)c3cccc([N+](=O)[O-])c3)cc12 | i | 1.34
CCCCCOc1ccc(CSC2=NCCN2)cc1[N+](=O)[O-] | i | 1.3
COc1ccc(S(=O)(=O)N2CCSCC2)cc1C(N)=O | i | 0.9
COc1ccc(S(=O)(=O)N2CCN(Cc3ccc4c(c3)OCO4)CC2)cc1 | i | 0.02
Cc1ccc(NC(=O)CSCC(=O)N=c2sccn2C)cc1 | i | -0.02
COC(=O)c1ccc(Cl)c(-c2ccc(/C=N/NC(=O)Nc3ccccc3)o2)c1 | i | -0.02
O=C(Nc1ccccc1F)N1CCC(NC(=O)C23CC4CC(CC(C4)C2)C3)CC1 | i | 0.38
NS(=O)(=O)c1cccc(NC(=O)c2ccno2)c1 | i | -1.9
COC(=O)c1ccc(NC(=S)NC2CCc3ccccc32)cc1 (stereo not given) | i | 1.94
Fc1ccccc1Nc1nc(Cl)nc(Cl)n1 | i | 0.16
CN1C(=O)/C(=C/c2cc3c(cc2Br)OCO3)NC1=S | i | -2.02
O=C(C1COc2ccccc2O1)N1CCN(S(=O)(=O)c2ccccc2)CC1 (stereo not given) | i | 0.88
CCCCCn1c(=O)c(-c2nc3ccccc3c(=O)[nH]2)c(O)c2ccccc21 | i | -0.23
COc1cccc(OC)c1OCCOc1ccc(C(=O)c2ccccc2)cc1 | i | -0.56
CC(C)NC(=O)c1ccc2c(c1)S(=O)(=O)c1ccccc1C2=O | i | -0.01

Six entries from above, with the structure last:
KCNQ2 block	KCNQ2 block baseline	molecule
i	-2.02	CN1C(=O)/C(=C/c2cc3c(cc2Br)OCO3)NC1=S
i	-0.23	CCCCCn1c(=O)c(-c2nc3ccccc3c(=O)[nH]2)c(O)c2ccccc21
i	-0.01	CC(C)NC(=O)c1ccc2c(c1)S(=O)(=O)c1ccccc1C2=O
i	1.94	COC(=O)c1ccc(NC(=S)NC2CCc3ccccc32)cc1 (stereo not given)
i	0.88	O=C(C1COc2ccccc2O1)N1CCN(S(=O)(=O)c2ccccc2)CC1 (stereo not given)
i	-0.56	COc1cccc(OC)c1OCCOc1ccc(C(=O)c2ccccc2)cc1

Following part:
SMILES | KCNQ2 block | KCNQ2 block baseline
O=C(O)CC(NC(=O)C(c1ccccc1)c1ccccc1)c1ccco1 (stereo not given) | i | 1.25
O=C(NCc1ccccc1)C(c1ccc(F)cc1)N(Cc1ccc2c(c1)OCO2)C(=O)Cn1nnc(-c2cccs2)n1 (stereo not given) | i | 0.08
CCc1cccc(NC(=O)CN(C)S(=O)(=O)c2cnc[nH]2)c1 | i | -0.03
O=C(NC1CCN(C(=S)NCCc2ccccc2)CC1)C1CC1 | i | 3.61
Cc1cc(N2CCCCC2)nc2ccc(NC(=O)c3ccc(Br)o3)cc12 | i | -3.47
CC(Oc1ccccc1Cl)C(=O)Nc1ccccc1C(=O)N1CCOCC1 (stereo not given) | i | -2.95
Cc1nn(-c2ccccc2)c(N)c1N=Nc1ccc2ccccc2c1 | i | 0.99
NC(=O)COC(=O)c1c2c(nc3ccccc13)CCCCC2 | i | -1.03
COc1ccc(Oc2nc(-c3ccccn3)nc3ccccc23)cc1 | i | -1.19
COc1ccc([N+](=O)[O-])cc1NC(=O)c1ccc(-n2nc(C)cc2C)cc1 | i | 0.78
O=C(O)Cn1c(CCS(=O)(=O)c2ccc(Br)cc2)nc2ccccc21 | i | -0.28
Cc1ccc(-c2nn3c(C)nnc3s2)cc1NC(=O)COc1ccc(Cl)cc1 | i | 1.36
COC(=O)CCCC(=O)Nc1ccc(Br)cc1 | i | -0.18
CC(C)OCC1CC(CC(=O)Nc2ccc([N+](=O)[O-])cc2)C(=O)O1 (stereo not given) | i | 1.25
COc1ccc(CC(=O)N(Cc2ccccc2)c2ccc(C)cc2)cc1OC | i | -0.88
Cc1ccc2[nH]c(=O)cc(C(=O)OC(C)C)c2c1 | i | -1.66
O=C(CCCn1cc([N+](=O)[O-])cn1)Nc1ccc2c(c1)OCO2 | i | -1.62
O=C(CSc1nc2ccsc2c(=O)n1Cc1ccc(C(=O)O)cc1)NCc1ccco1 | i | 1.93
Clc1cccc(NCc2nnc(SCc3ccccc3Cl)o2)c1 | i | 0.18
O=C(N/N=C/c1cn(-c2ccccc2)nc1-c1cc2ccccc2o1)c1ccncc1 | i | -0.89

4 entries already listed, ordered by molecular weight, high to low:
SMILES | KCNQ2 block | KCNQ2 block baseline
CC1CCCCN1C(=O)COC(=O)C1CCN(S(=O)(=O)c2ccc(Cl)c(C(F)(F)F)c2)CC1 (stereo not given) | i | 0.81
COc1cccc(NC(=O)CCNS(=O)(=O)c2ccc3c(c2)oc(=O)n3C)c1 | i | -0.28
CC(Oc1ccccc1Cl)C(=O)Nc1ccccc1C(=O)N1CCOCC1 (stereo not given) | i | -2.95
CCc1cccc(NC(=O)CN(C)S(=O)(=O)c2cnc[nH]2)c1 | i | -0.03

Next results follow.
SMILES | KCNQ2 block | KCNQ2 block baseline
O=C(NCc1nc2ccccc2[nH]1)c1cccc(S(=O)(=O)N2CCCC2)c1 | i | -0.73
Cc1ccc(C)c(NS(=O)(=O)c2ccc(-c3cnc(C4CC4)o3)cc2)c1 | -6.8* | -1.18*
Cn1c(=O)c(Oc2cc(Cl)cc(Cl)c2)nc2ccccc21 | i | 1
CCC1(CC)Cc2ccccc2C(Nc2c(C)n(C)n(-c3ccccc3)c2=O)=N1 | i | 1.39
CC(C)(C)c1ccc(O)c(/C=N\O)c1 | i | -0.67
CCOc1cccc(N2C(=O)CC(N3CCN(c4ccc(S(=O)(=O)CC)cc4)CC3)C2=O)c1 (stereo not given) | i | 1.74
Cn1ccnc1SCC(=O)c1ccc2ccccc2c1 | i | -0.45
COc1ccc(C(c2nnnn2Cc2ccccc2)N2CCN(c3nc4ccccc4s3)CC2)cc1 (stereo not given) | i | 0.14
COc1ccccc1CNC(=O)COC(=O)CNS(=O)(=O)c1ccc(C)cc1 | i | -0.62
CC1=C(C(=O)OCCOc2ccccc2)C(c2ccsc2)NC(=O)N1C (stereo not given) | i | 2.19

Compound profiles (already shown). Order of screens: KCNQ2 block	KCNQ2 block baseline
CN1C(=O)/C(=C/c2cc3c(cc2Br)OCO3)NC1=S across the screens: i	-2.02
COc1ccc(S(=O)(=O)N2CCN(Cc3ccc4c(c3)OCO4)CC2)cc1 across the screens: i	0.02

(more compounds)
SMILES | KCNQ2 block | KCNQ2 block baseline
Cc1ccc(SCC(=O)OCC(=O)N(CC(C)C)C2CCS(=O)(=O)C2)cc1C (stereo not given) | i | -0.46
COc1ccc2c(c1)/C(=N/OC(=O)c1cccs1)CCC2 | i | -0.11
CCOc1cc(C(c2c(C)[nH][nH]c2=O)c2c(C)[nH][nH]c2=O)ccc1OS(=O)(=O)c1ccc(C)cc1 | i | 0.03
Cc1ccc(NS(=O)(=O)c2cc(C(=O)N3CCc4ccccc4C3)ccc2Cl)cc1 | i | -2.24
Fc1ccc(OCCCCN2CCOCC2)cc1 | i | 0.05
CC(=O)OC(COc1ccccc1)Cn1cnc2ccccc21 (stereo not given) | i | -0.48
O=C(Nc1ccccc1C(=O)NCc1ccco1)c1ccccc1 | i | -1.62
Cc1cccn2c(=O)c(C=NCCO)c(Nc3ccc(Cl)cc3)nc12 | i | 6.94
CC(=O)NC(CC(=O)OCC(=O)N1CCc2ccccc21)c1ccccc1 (stereo not given) | i | -0.74
CC1(c2nnc(-c3ccc(Cl)cc3)o2)CC(c2cccc(Cl)c2)=NO1 (stereo not given) | i | -0.63
Cc1ccc(C(=O)N/C(=C\c2cccs2)c2nc3ccccc3[nH]2)cc1 | i | 0.57
CCCN1CCn2c3c(c4cc(Br)ccc42)CCCC31 (stereo not given) | i | -0.15
COc1ccccc1Nc1nc2ccc(C)cc2cc1C#N | i | 2.19
Cn1cccc1Cc1nnc(SCC(=O)N2CCOCC2)n1-c1ccc(F)cc1 | i | -1.86
CCOC(=O)c1sc2nc(-c3cccnc3)ccc2c1N | i | -0.03
COc1ccc(CNC(=O)C2CC(c3cc(C(F)(F)F)cc(C(F)(F)F)c3)=NO2)cc1 (stereo not given) | i | -2.24
CCSc1nc2c(c(=O)[nH]c(=O)n2C)n1CC(O)COc1ccccc1C (stereo not given) | i | -2.44
N#C/C(=C\c1ccc(N2CCOCC2)o1)C(=O)Nc1ccc(O)cc1 | i | 18.3
Cc1cc(C)n(/C(=C\N(C)C)C(=O)c2cccc([N+](=O)[O-])c2)n1 | i | -0.03
CCCOc1ccc(N2C(=O)CC(N3CCN(CCN=CC4=C(O)CC(C)(C)CC4=O)CC3)C2=O)cc1 (stereo not given) | i | -0.38
Nc1nc(-c2ccc(Cl)cc2)cn1N | i | -0.07
O=C(N/N=C/c1cccc(C(F)(F)F)c1)c1ccccc1O | i | 0.57
COc1cc(Cl)c([C@@H]2C[C@H]3CN(c4ccccc4)C(=O)[C@]34CCCN24)cc1OC | i | 0.38
O=C(O)CCC(=O)Nc1ccccc1C(=O)NCc1ccccc1 | i | -0.34
CC(=O)N=c1sc(S(N)(=O)=O)nn1C | i | -1.94
Cc1ccc(NC(=O)Cn2cc3c(n2)CCC(C)C3)cc1 (stereo not given) | i | -0.41
CC(=O)c1ccc(N2CCN(c3ccc(C(N)=O)cc3[N+](=O)[O-])CC2)cc1 | i | 3.16
CC(C)NC(=O)c1ccccc1S(=O)(=O)c1ccccc1C#N | i | -0.01
CCOC(=O)N1CCC(N2Cc3cccc(C(=O)NCc4ccc5c(c4)OCO5)c3C2=O)CC1 | i | 0.18
Cc1ccc2nc(NCc3ccccc3)c(C=O)c(=O)n2c1 | i | 0.89
Cc1cc(N2CCCC2)ccc1NC(=O)CN1C(=O)NC2(CCCCC2)C1=O | i | 1.39
Cc1sc(CO)c(Sc2ccccc2)c1C(=O)O | i | 0.02
COc1ccc(CNC(=O)CN2CCN(c3ccccc3)CC2)cc1 | i | 0.29
Cc1ccc(-c2nnc(N3CCN(C(=O)Cn4c(=O)n(C)c5ccccc54)CC3)c3ccccc23)cc1 | i | 0.03
CC(=O)c1cccc(S(=O)(=O)Nc2ccc(N3CCOCC3)cc2)c1 | i | 0.06
C=CCS(=O)(=O)N1CCCC(N(C)CCc2ccc(OC)c(OC)c2)C1 (stereo not given) | i | 1.68
O=C(Nc1ccc2c(c1)CCC2)c1cccc(S(=O)(=O)N2CCN(c3ccc(F)cc3)CC2)c1 | i | -0.86
Cc1ccc(NC(=O)C2CCCN2C(=O)OC(C)(C)C)cc1C (stereo not given) | i | 1
N#Cc1cc(-c2ccccc2)nc(Oc2ccc(Cl)cc2)n1 | i | 0.28
COC(=O)c1cn(CCOc2ccccc2OC)c2ccccc12 | i | 1
Cc1ccc(S(=O)(=O)N[C@H](C(=O)OCC(=O)N2N=C(c3ccc(Cl)cc3)CC2c2ccco2)C(C)C)cc1 (stereo not given in full) | -6.13* | -1.42*
O=S1(=O)N=C(Nc2ccc(O)cc2)c2ccccc21 | i | -0.55
Cc1cc(Cl)ccc1NS(=O)(=O)c1c(C)[nH]c(=O)[nH]c1=O | i | -0.63
CCC(C)NC(=O)CCS(=O)(=O)c1ccc2c(c1)n(C)c(=O)c(=O)n2C (stereo not given) | i | 0.07
COc1ccc(-c2cc(C)no2)cc1S(=O)(=O)N1CCCCC1 | i | -0.41
C=C(C)CNC(=O)c1ccc2nc(Cc3ccc(OC)cc3)oc2c1 | i | -0.67
O=S(=O)(c1cccc(C(F)(F)F)c1)N1CCC(CO)(CCCc2ccccc2)CC1 | i | 0.2
CC(=O)C1=C(NC(=O)c2ccccc2F)C[C@@H]2[C@H]1C2(C)C | i | 1.45
COc1ccccc1CN(Cc1cc2cc(C)cc(C)c2[nH]c1=O)Cc1nnnn1CC1CCCO1 (stereo not given) | i | 1.39
COc1cccc(C2c3c(oc4ccc(Cl)cc4c3=O)C(=O)N2c2cc(C)on2)c1OC (stereo not given) | -7.19* | -0.23*
CC(C)c1cccc(OCC(=O)Nc2ccc(S(=O)(=O)Nc3ccccn3)cc2)c1 | i | -0.17
CC(Oc1ccccc1)C(=O)Nc1c2c(nn1-c1ccccc1)CS(=O)(=O)C2 (stereo not given) | i | 0.9
Nc1ccc2nn(-c3ccc(Cl)cc3)nc2c1 | i | 3.92

Screening results (PubChem BioAssay)

An excerpt; the hit share may differ from the screen's.
